NPYLR7 ag – activates Aedes aegypti NPYLR7 receptor | HEK293T NPYLR7/Galpha15, GCaMP6s calcium fluorescence | activation, % at 10 µM | hit rate 0.15% among 270,000; in the data active = activation above about 40%;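 note: 0% = vehicle and 100% = reference agonist at the receptor; some compounds past the cut are filed as inactive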
NPYLR7 ag max-min – further read-out of NPYLR7 ag, marked with its call; activation, %; measured here: Max-Min RFU normalised activation; some inactives read as strong as hits;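 span of the calcium signal over five minutes; 0% = vehicle and 100% = native peptide agonist; compound fluorescence can raise it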
Numbers without * were called inactive; & = joins results of further samples. Some of the compounds tested (hit frequency here may not be typical).

Every second line gives: NPYLR7 ag	NPYLR7 ag max-min
> COc1ccccc1C(=O)NN(CCC#N)C1=NS(=O)(=O)c2ccccc21
→ -15	-20
> Cc1ccc(S(=O)(=O)NCCNc2nc(-c3cccc(Br)c3)nc3ccccc23)cc1
→ 2	17
> Cc1ncc(C(=O)N2CCC(O)(CN(C)C)C2)c(-c2ccccc2)n1 (stereo not drawn)
→ 3	3
> Cn1cnnc1SCC(=O)Nc1ccc(Cl)cn1
→ -4	-6
> Cc1noc(C)c1C(=O)OCC(=O)N1N=C2C(=Cc3ccco3)CCCC2C1c1ccco1 (stereo not drawn)
→ 2	7
> CCOc1ccccc1NC(=O)N(CC(=O)Nc1cc(C(C)(C)C)nn1-c1ccc(C)cc1)Cc1ccccc1
→ 0	7
> CC(Cc1ccco1)NC(=O)c1cc2c(s1)CCC2 (stereo not drawn)
→ 3	0
> Cc1ccccc1-n1c(-c2ccc(Cl)cc2)cc(C(=O)NC(C)c2ccccc2)c1C (stereo not drawn)
→ -8	-14
> CC(C)CCn1nc(C(=O)N2CCOCC2)c2c1CCN(C(=O)CSc1ccccc1)C2
→ 6	-5
> O=C(CSc1nnc(Cc2cccs2)n1C1CCCCC1)N1CCNC1=O
→ 7	6
> CCOc1ccccc1N1C(=O)CSC1c1ccc(NC(=O)/C=C/c2ccc([N+](=O)[O-])cc2)cc1 (stereo not drawn)
→ 1	7
> NC(=O)[C@@H](CCC(F)(F)F)N(Cc1ccc(-c2ncon2)cc1F)S(=O)(=O)c1ccc(Cl)cc1
→ -1	-9
> CN1CC2(CCCN(Cc3noc(C(C)(C)C)n3)C2)OC1=O (stereo not drawn)
→ 3	-1
> O=C(c1cnccn1)N(CCN1CCCCC1)CC1CCCN(C2CCCC2)C1 (stereo not drawn)
→ -2	-4
> CCn1cc(NC(=O)c2oc(-c3ccccc3)nc2C)ccc1=O
→ -6	-5
> CN(CC(=O)Nc1sccc1C(N)=O)Cc1ccco1
→ 5	5
> CCn1c(=NC(=O)c2ccccc2S(=O)(=O)CC)sc2cc3c(cc21)OCCO3
→ -3	-5
> COc1ccc(-c2cnnc(NCCSc3nccn3C)n2)c(OC)c1
→ 0&-5	-5&-7
> Cc1ccc(NC(=O)C(C)OC(=O)COc2ccc3c(c2)CCC3)cc1 (stereo not drawn)
→ -3	-3
> Cc1ccccc1Oc1ncccc1CNc1nccc(C(F)(F)F)n1
→ 1	-1
> CC1(C)COCCN1Cn1nc(-c2ccco2)n(Cc2ccccc2)c1=S
→ 1	4
> CNc1nc2cnc(Nc3ccncc3)cc2n1-c1cc(OC)c(OC)c(OC)c1
→ 9	2
> C=CCN(CC=C)C(=O)CSc1nnc(-c2ccncc2)n1-c1cccc(C(F)(F)F)c1
→ 3	15
> O=C(N/N=C\c1c[nH]c2ccccc12)c1cc(-c2ccc(Cl)s2)[nH]n1
→ -1	-2
> CCOC(=O)c1nn(-c2ccccc2Cl)c(=O)cc1OS(=O)(=O)c1cccc(C)c1
→ -2	4
> CCOC(=O)c1c(NC(=O)c2ccccc2F)sc(C(=O)Nc2ccccc2)c1C
→ -5	-12
> O=c1c2sccc2nc(SCc2cc(=O)n3ccccc3n2)n1-c1ccc(F)cc1
→ 9	6
> CCOC(=O)[C@@H]1C[C@H]2CN(Cc3ccc(OC)cc3)C(=O)c3cccc(c32)N1C(=O)c1ccno1
→ -3	2
> NC1CCSc2ccc(F)cc21 (stereo not drawn)
→ 3	3
> Cc1cccc(C)c1NC(=O)C(=O)Nn1c(=S)[nH]c2ccccc2c1=O
→ 2	8
> Cc1nc(SCC(=O)N2CCNC2=O)n(CC(C)C)c1C
→ 11	7
> CCOc1ccc(-c2ccc(OCCNC(=O)CC3CCCCC3)nn2)cc1
→ -1	-2
> CN(C)CCNc1nc(NCCCN2CCCC2=O)c2sc(-c3ccccc3)cc2n1
→ 4	2
> CC1=NN(CC(=O)c2ccccc2)c2nc3c(c(=O)n(CC(=O)c4ccccc4)c(=O)n3C)n2C1C (stereo not drawn)
→ 8	11
> CC(C)COc1nc(-c2ccccc2F)n(-c2ccc(NS(=O)(=O)c3ccc(Cl)cc3)cc2)n1
→ 11	16
> COc1ccc(OC)c(N2CCn3c2nc2c3c(=O)n(C)c(=O)n2C)c1
→ 9	2
> CCc1[nH]nc(C(=O)N(CCOC)CC2CCN(Cc3ccccc3F)CC2)c1C
→ 20	8
> C=CCN1CCN(c2ncc(C)c(N(C)C)n2)CC1
→ 3	5
> CCCCCc1ccc(C(=O)Oc2ccc(-c3nc4ccccn4c3NC3CCCCC3)cc2OC)cc1
→ 5	2
> O=C(CSc1ccc2nc(-c3ccccc3)cn2n1)N1CCN(c2ccccc2)CC1
→ 5	1

Next part
structure	NPYLR7 ag	NPYLR7 ag max-min
CCCNC(=O)C1(C)CCN1C(=O)C1(c2ccccc2)CC1 (stereo not drawn)	12	18
CCCN(Cn1nc(-c2ccccc2F)n(C)c1=S)C1CCS(=O)(=O)C1 (stereo not drawn)	1	4
CCOc1ccc(-n2nnc3c(N4CCN(C(=O)c5ccc(C)cc5)CC4)ncnc32)cc1	-6	-13
COc1cccc(CN(C)C(=O)C2Cc3ccccc32)c1 (stereo not drawn)	4	5
O=C(O)C1CCCCC1C(=O)N1CCN(c2cccc(Cl)c2)CC1 (stereo not drawn)	-10	-17
CCN1CCN(c2ccc(NC(=O)CCSc3ccc(F)c(F)c3)cc2)CC1	-5	-5
Cn1c(NNC(=O)C(c2ccccc2)c2ccccc2)cc(=O)n(C)c1=O	-4	-5
Cc1ccc(C2CCCN2C(=O)C2CC3C=CC2C3)cc1 (stereo not drawn)	7	5
NC[C@H]1O[C@H](O[C@H]2[C@H](O)[C@@H](O[C@H]3O[C@H](CO)[C@@H](O)[C@H](N)[C@H]3O)[C@H](N)C[C@@H]2N)[C@H](N)C[C@@H]1O	-2&-4	-9&-9
Cc1cnn(Cc2nnc(-c3ccc(Br)cc3)o2)c1	1	0
O=c1[nH]ccc2c1cnc1ccnn12	3	1
Cc1c(C(=O)NC2CCCc3ccccc32)cnc2c(-c3ccc(C(C)C)cc3)cnn12 (stereo not drawn)	0	0
CCc1nnc(NC(=O)c2cc3c(C)nn(C)c3s2)s1	6	3
Cc1cccc(NC(=O)CN(c2cccc([N+](=O)[O-])c2)S(=O)(=O)c2ccccc2)c1	-1	-3
Cn1nnc2c(SCC(=O)N3CCCCC3)ncnc21	1	11

Continued, starting with the last seven of the part before.
structure	NPYLR7 ag	NPYLR7 ag max-min
NC[C@H]1O[C@H](O[C@H]2[C@H](O)[C@@H](O[C@H]3O[C@H](CO)[C@@H](O)[C@H](N)[C@H]3O)[C@H](N)C[C@@H]2N)[C@H](N)C[C@@H]1O	-2&-4	-9&-9
Cc1cnn(Cc2nnc(-c3ccc(Br)cc3)o2)c1	1	0
O=c1[nH]ccc2c1cnc1ccnn12	3	1
Cc1c(C(=O)NC2CCCc3ccccc32)cnc2c(-c3ccc(C(C)C)cc3)cnn12 (stereo not drawn)	0	0
CCc1nnc(NC(=O)c2cc3c(C)nn(C)c3s2)s1	6	3
Cc1cccc(NC(=O)CN(c2cccc([N+](=O)[O-])c2)S(=O)(=O)c2ccccc2)c1	-1	-3
Cn1nnc2c(SCC(=O)N3CCCCC3)ncnc21	1	11
COCCCN(CC(=O)N(CCc1c[nH]c2ccccc12)Cc1ccccc1)C(=O)c1cc(OC)cc(OC)c1	29	28
O=C(CSc1nnc(-c2ccccc2)n1-c1ccccc1)N/N=C\c1c(F)cccc1Cl	-5	-12
O=C(CCn1cnc2ccccc2c1=O)N1CCCC(Nc2ccccc2)C1 (stereo not drawn)	1	-2
c1ccc(-c2nc[nH]c2-c2ccc(C3CCCCO3)o2)cc1 (stereo not drawn)	7&0	6&-3
CN(C)CCN(Cc1ccc(F)cc1)C(=O)NC1CCCN(c2ncccn2)C1 (stereo not drawn)	6	4
CN1C2=C(C(=O)CC(C)(C)C2)C(c2cc(Cl)ccc2O)C2=C1CC(C)(C)CC2=O	2	3
Cc1cc(NC(=O)NC(CCN(C)C)C(C)(C)C)n(C(C)(C)C)n1 (stereo not drawn)	0	-1
COC(=O)c1ccc(N2C(=O)CC(N3CCN(C/C=C/c4ccccc4)CC3)C2=O)cc1 (stereo not drawn)	1	1
COCCOC(=NCC(C)C)NC(=O)c1ccc(F)cc1	4	-3
O=C(Nc1cc(C2CC2)[nH]n1)C1CCN(C(=O)COc2ccccc2)CC1	8	2
O=C(c1ccc(CSCCc2ccccc2)cc1)N1C2CCC1CC(Oc1cccc(C(F)(F)F)c1)C2 (stereo not drawn)	19	10
CCn1c(SCc2ccc(/C=C/c3ccccc3)cc2)nnc1-c1c2c(nc3ccccc13)CCC2	2	13
Cc1cc(C)c(C(C(=O)O)c2ccccc2)c(C)c1 (stereo not drawn)	-1	-5
COc1ccc(/C=C2/CCn3c2nc2scc(-c4ccccc4)c2c3=O)cc1O	5	4
Cc1nc(NCCCCCC(=O)O)c2c(C)c(C)sc2n1	-1	3

Structures from the list above that have two or more sulfur atoms, in the order listed:
structure	NPYLR7 ag	NPYLR7 ag max-min
O=C(CSc1nnc(Cc2cccs2)n1C1CCCCC1)N1CCNC1=O	7	6
CCn1c(=NC(=O)c2ccccc2S(=O)(=O)CC)sc2cc3c(cc21)OCCO3	-3	-5
O=c1c2sccc2nc(SCc2cc(=O)n3ccccc3n2)n1-c1ccc(F)cc1	9	6
CCCN(Cn1nc(-c2ccccc2F)n(C)c1=S)C1CCS(=O)(=O)C1 (stereo not drawn)	1	4
CCc1nnc(NC(=O)c2cc3c(C)nn(C)c3s2)s1	6	3

Going on with the list:
structure	NPYLR7 ag	NPYLR7 ag max-min
Cc1ccc2c(c1)c(C(=O)NCCC1CN(C)CCO1)nn2C (stereo not drawn)	1	0
Cc1csc(CN(C)C(=O)c2ccc(N3CCC(O)CC3)cc2)n1	5	3
O=C(Nc1ccccc1)c1cccc(S(=O)(=O)N2CCCc3ccccc32)c1	4	2
CCC(CC)C(=O)N(C)c1c(C)nc2ccc(C(=O)NCCN3CCOCC3)cn12	13	9
CN1CCN(S(=O)(=O)c2ccc(N(C)CCc3ccccn3)nc2)CC1	0	-2
Fc1ccc(OCc2nc(-c3ccncc3)no2)c(F)c1	1	0
COc1cc(CN2C(=O)CNC2=S)ccc1OCc1ccccc1	-1	2
CCN(CC)C(=O)N1CCCC(C(=O)Nn2cnc3ccccc32)C1 (stereo not drawn)	-2	-2
CC1(C(=O)NS(=O)(=O)Cc2cccc(Cl)c2)CCN1C(=O)Cc1ccsc1 (stereo not drawn)	0	-1
CC1CCN(C(=O)c2ccc(Cl)c([N+](=O)[O-])c2)CC1	2	-1
O=C(CSc1nnc(NC2CC2)s1)c1cc(Cl)sc1Cl	0	0
Clc1ccc(-c2nc3c(OCc4ccccc4)cccn3c2NCc2ccccc2)cc1Cl	-2	4
COc1ccc(CN(CC(O)COc2ccccc2)C2CC2)cc1 (stereo not drawn)	29	17
N#CC(Nc1ccc(F)cc1)c1ccco1 (stereo not drawn)	5	5
COc1cccc(C(=O)NC(C(=O)NCc2ccco2)C2CCN(C(=O)c3cccc(F)c3)CC2)c1 (stereo not drawn)	6	5
Cc1ccc(-c2c(C)oc(C)c2C(=O)NCCc2c[nH]c3ccccc23)cc1	-7	-12
COc1ccc(OC)c(-c2ccc(SCC(=O)N3CCCC3)nn2)c1	9	3
Cc1cccc(Nc2ccc(NCCNC(=O)Nc3ccc(C)c(F)c3)nn2)n1	11	2
O=S(=O)(NCc1nnnn1-c1ccc(F)cc1)c1ccccc1C(F)(F)F	6	5
CC1CCCCC1N(C)CCC(=O)Nc1ccccc1 (stereo not drawn)	10	6
O=C(Nn1cnc2c(cnn2-c2ccccc2)c1=O)c1cccc([N+](=O)[O-])c1	1	-1
Cc1cc(N2C(=O)c3oc4cc(C)c(Cl)cc4c(=O)c3C2c2ccccc2)no1 (stereo not drawn)	8	5
CC1(C(=O)NS(=O)(=O)c2ccccc2Cl)CCN1C(=O)C1(c2ccccc2)CC1 (stereo not drawn)	2	2
Nc1nnc(SCC(=O)O)s1	3&11	1&17
COCOc1ccc(-c2ncc(OCCN3CCCC3=O)nc2NC(=O)c2ccsc2)cc1	-18	-18
CNC(=O)CC(C)N(C)Cc1ccc2[nH]ccc2c1 (stereo not drawn)	-4	-7
CC1=C(C(=O)OCCc2ccccc2)C(c2ccc(Br)s2)NC(=O)N1C (stereo not drawn)	-10	-16
COc1ccc2c(c1)CCc1cc(CCC(=O)NCc3ccncc3)n(CCc3cccc(F)c3)c1-2	27	22
CCCCCCCCC(=O)Nc1c(-c2cc(C)cc(C)c2)nc2ccccn12	-4	-4
Cc1ccc(NC(=O)N2CCC3(CC2)SCCN3C(=O)c2ccc(C(F)(F)F)cc2)cc1Cl	3	10
O=C(OCc1cccnc1)c1cc(=O)[nH]c2ccccc12	5	4
Cc1ccc(OCCC(=O)N2CCc3c(sc4[nH]c(=O)n(C5CCCCC5)c(=O)c34)C2)cc1	3	0
CCc1nc2ccc(C(=O)NCCN3CCOCC3)cn2c1N(CC)Cc1ccc2c(c1)OCCO2	8	19
Cc1cc(OCc2cc(C(=O)N3CCN(C4CCCC4)C(=O)C3)no2)cc(C)c1Cl	3	0
C=C1C(C)(C)[C@H]2CC[C@]1(C(=O)NCC(=O)NC(C)(C)C)C2	1	-2
CS(=O)c1ccc(NC(=O)c2n[nH]c3c2CCCC3)cc1 (stereo not drawn)	5	1
O=C1NC(=S)N/C1=C/c1ccccc1Cl	-12	-13
CCN(CC)C(=O)Oc1ccc2c(ccn2C)c1NC(=O)COCCOC	-3	2
O=C(NC1CCCc2c1cnn2-c1ccccn1)c1csc2c1CCCC2 (stereo not drawn)	8	3
CC(=O)Cn1c(=O)c2c(nc3n2CCCN3c2ccc(C)c(Cl)c2)n(C)c1=O	2	0
O=C(CN1CCN(c2nccc(N3CCC(O)C3)n2)CC1)Nc1ccccc1 (stereo not drawn)	3	0
CNC(=O)c1cc2c(C(F)(F)F)nn(C)c2s1	8	2
Cc1cnn(CC(=O)NCC(NC(=O)Cn2cc(C)cn2)C(C)C)c1 (stereo not drawn)	2	13

Bioassay records deposited in PubChem by Fisher Drug Discovery Resource Center.
